KCNQ2 pot: enhances the rat KCNQ2 potassium channel; B-score at 10 µM; O88943; AID 2239; actives 0.54% (n = 310,000); CHO-K1 KCNQ2, FluxOR thallium flux fluorescence; stronger effect = higher value;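 active = fluorescence ratio B-score at least 3 SD of library B-scores, with initial fluorescence B-score within 3 SD, cut at about 5.3 in these data; same plate scores as AID 2156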;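 also: B-score of peak minus minimum over baseline fluorescence ratio after K+ and Tl+ stimulus; positive B-score means potentiation of KCNQ2 with more thallium influx and brighter signal; only the inactives scoring about 0 or higher are listed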
Target sequence (O88943 whole entry, looked up): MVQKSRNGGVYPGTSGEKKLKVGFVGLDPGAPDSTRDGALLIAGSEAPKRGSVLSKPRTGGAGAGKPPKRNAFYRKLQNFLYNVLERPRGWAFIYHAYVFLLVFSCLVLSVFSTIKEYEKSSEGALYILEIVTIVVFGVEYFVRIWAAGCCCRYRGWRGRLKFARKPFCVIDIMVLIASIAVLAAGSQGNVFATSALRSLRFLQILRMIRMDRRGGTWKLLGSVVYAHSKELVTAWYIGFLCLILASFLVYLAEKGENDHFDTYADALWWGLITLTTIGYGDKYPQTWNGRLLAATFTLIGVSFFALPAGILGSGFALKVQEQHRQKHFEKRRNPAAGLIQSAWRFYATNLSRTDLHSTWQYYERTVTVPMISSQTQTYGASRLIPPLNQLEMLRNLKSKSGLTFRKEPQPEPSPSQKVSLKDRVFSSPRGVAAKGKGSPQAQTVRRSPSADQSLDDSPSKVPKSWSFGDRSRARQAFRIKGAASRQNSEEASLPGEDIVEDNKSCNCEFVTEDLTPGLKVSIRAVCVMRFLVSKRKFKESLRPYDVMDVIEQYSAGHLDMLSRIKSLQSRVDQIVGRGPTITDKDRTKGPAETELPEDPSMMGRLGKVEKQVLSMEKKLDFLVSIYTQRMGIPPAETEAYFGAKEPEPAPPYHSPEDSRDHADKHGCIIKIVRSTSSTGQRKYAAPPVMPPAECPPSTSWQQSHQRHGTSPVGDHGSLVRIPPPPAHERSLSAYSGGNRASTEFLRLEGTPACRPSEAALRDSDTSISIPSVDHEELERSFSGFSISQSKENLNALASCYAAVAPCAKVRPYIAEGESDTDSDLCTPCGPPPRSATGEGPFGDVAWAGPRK
KCNQ2 pot baseline: also measured in KCNQ2 pot; calls as there; B-score; compound at 10 µM; measured here: initial fluorescence intensity artifact check;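 brightness before thallium and not channel activity; 0 = typical well and far values either way flag optical interference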
* = called active by the depositor. Only part of the results is shown. The share of hits here may be higher or lower than overall.

SMILES	KCNQ2 pot	KCNQ2 pot baseline
COc1ccc(NC(C)=O)cc1NC(C)C(=O)Nc1ccc(F)c(F)c1F (stereo not given)	1.1	1.6
Cn1c(Nc2ccccc2)nc2ccccc21	0.12	-1.4
c1coc(CNCC2OCCc3ccccc32)c1 (stereo not given)	0.57	-0.24
CC(C)c1nc(SCC(=O)N2CCN(c3ccccc3)CC2)c2c(=O)n(C)c(=O)n(C)c2n1	6.2*	1.9*
COc1cccc2cc(-c3nc4ccccc4[nH]3)c(=O)oc12	1.3	-1.5
O=C1CCc2cc(NS(=O)(=O)c3ccccc3)cc3c2N1CC3	0.21	-0.49
COc1ccc(CNC(=O)CCn2ccc3cc(S(=O)(=O)N4CCCC4)ccc32)cc1	0.21	-0.09
COC(=O)C1=C(C)Nc2nnnn2C1c1ccc(Cl)cc1Cl (stereo not given)	1.1	0.07
O=C(O)Cc1ccc(N=Cc2c(O)ccc3ccccc23)cc1	0.37	2
CSc1ccccc1C(=O)Nc1cc(C)cc(C)c1	0.87	-0.03
CCOCCn1c(SCCCc2ccccc2)nc2c1c(=O)[nH]c(=O)n2C	0.98	0.95
O=[N+]([O-])c1ccccc1/C=N\Nc1nccs1	0.04	0.56
CCCCCn1cnc2c(sc3nc4c(cc32)CSC(C)(C)C4)c1=O	0.12	-0.87
O=C(COC(=O)C1CCN(C(=O)Nc2ccccc2)CC1)NCC(F)(F)F	1.7	-1.1
O=C(Nc1nc2ccccc2[nH]1)c1cc2ccccc2o1	1.2	1.1
COc1ccccc1CN1CCCC(C(=O)N(C)Cc2ccccc2)C1 (stereo not given)	1.4	0.48
C/C(=N\N=C\c1ccccc1F)c1nnn(-c2nonc2N)c1C	1.1	-0.27
COC(=O)c1sccc1NC(=O)Cc1ccc(OC)cc1	0.68	1.7
CC(C)(C)SCCNC(=O)CSc1ccccc1	2	-1.6
COc1ccc(C/C(N)=N/OC(=O)Cc2ccc(OC)c(OC)c2)cc1	0.54	2.8
COc1ccc(S(=O)(=O)Cc2ccc(C(=O)N3CCN(c4ccccc4)CC3)o2)cc1	0.66	-0.62
CCOC(=O)C1=CN(C)C=C(C(=O)OCC)C1c1ccsc1	1.1	0.13
CCOc1ccc(N2C(=O)CC(N(CCc3ccccc3)C(=O)/C=C/C(=O)O)C2=O)cc1 (stereo not given)	0.64	-0.56
Cn1c(=O)c2c(ncn2CC(=O)N2CCN(c3ccc(F)cc3)CC2)n(C)c1=O	1.1	1.3
Cc1ccc(C(OC(=O)c2ccco2)C(=O)NC2CCCC2)cc1 (stereo not given)	2	-0.05
CCOC(=O)/C=C1\SCC(=O)N1Cc1nnc(-c2ccccc2Br)o1	0.26	-0.38
COc1ccc(-c2nonc2NC(=O)c2oc3ccccc3c2C)cc1OC	0.1	-1.2
NS(=O)(=O)Cc1noc2ccccc12	0.02	-1.7
CCOC(=O)C1CCN(C(=O)C2(NC(=O)Nc3cccc(F)c3)CCCCC2)CC1	0.67	0.38
CCN(CC)CCn1c(NC(=O)c2ccc(C(F)(F)F)cc2)nc2ccccc21	0.13	0.1

Compounds shown so far that contain an NH in an aromatic ring:
SMILES	KCNQ2 pot	KCNQ2 pot baseline
COc1cccc2cc(-c3nc4ccccc4[nH]3)c(=O)oc12	1.3	-1.5
CCOCCn1c(SCCCc2ccccc2)nc2c1c(=O)[nH]c(=O)n2C	0.98	0.95
O=C(Nc1nc2ccccc2[nH]1)c1cc2ccccc2o1	1.2	1.1

(next part)
SMILES	KCNQ2 pot	KCNQ2 pot baseline
CCOC(=O)Cn1c(=O)c2c(nc(N3CCCCC3)n2C)n(C)c1=O	0.51	0
NS(=O)(=O)c1cccc(NC(=O)COC(=O)Cc2ccc(S(=O)(=O)N3CCCCC3)s2)c1	0.39	-1.1
CCCn1nnc2c(=O)oc3ccccc3c21	0.82	-0.05
CNC(=O)C(Sc1ccccc1)c1ccccc1 (stereo not given)	0.01	-0.53
C[C@@H]1CN(Cc2nc(-c3cnccn3)no2)C[C@H](C)O1	0.15	-1
COc1ccc(/C=C(/NC(=O)c2ccco2)C(=O)NCc2ccco2)cc1OC	1.1	0.1
COc1ccc(N2C(=O)C3CCCN3C2c2cccc(F)c2)cc1Cl (stereo not given)	0.43	-0.45
CCc1nnc(NC(=O)C2CCN(c3cnccn3)CC2)s1	1	-1.8
CCOc1ccc(NC(=O)c2ccco2)cc1	1.8	0.73
CN1CCN(c2nc(-c3cccs3)cc(C(F)(F)F)n2)CC1	2.7	2.7
CC(C)NC(=O)NC(=O)COC(=O)c1c2c(nc3ccccc13)CCC2	0.68	2.3
C[C@@H](C(=O)NCCCCCC(=O)O)n1nnc2ccccc2c1=O	0.02	1.8
CNC(=O)c1sc(SC)cc1-c1ccc(Cl)cc1	0.36	-1.1
CC(c1ccco1)N(C(=O)c1ccc(S(=O)(=O)N2CCCCC2)cc1)c1ccccn1 (stereo not given)	0.03	-0.39
OCCN1CCN(c2nc(-c3ccccc3)nc3c2oc2ccccc23)CC1	0.16	-1.7
O=C(Cn1c(C(=O)O)cc2ccccc21)c1ccccc1	1.7	-0.06
CCC1CCCN1Cn1cnc2c([nH]c3ccccc32)c1=O (stereo not given)	0.46	-1.1
COc1ccc2c(c1)c(C(C)=O)c(C)n2-c1ccccc1	0.89	-0.37
CC1CCCCC1NC(=O)C1CCC(CNS(=O)(=O)c2cccc3cccnc23)CC1 (stereo not given)	0.81	0.11
O=C1NC(=O)/C(=C/c2ccccc2Cl)N1	2.9	-0.16

Some of the entries above, reformatted:
Below each compound: KCNQ2 pot, KCNQ2 pot baseline
CC(c1ccco1)N(C(=O)c1ccc(S(=O)(=O)N2CCCCC2)cc1)c1ccccn1 (stereo not given)
 : 0.03, -0.39
OCCN1CCN(c2nc(-c3ccccc3)nc3c2oc2ccccc23)CC1
 : 0.16, -1.7
O=C(Cn1c(C(=O)O)cc2ccccc21)c1ccccc1
 : 1.7, -0.06

(more compounds)
SMILES	KCNQ2 pot	KCNQ2 pot baseline
Nc1nonc1-c1nc2ccccc2n1CC(=O)N1CCN(c2ccc(F)cc2)CC1	0.59	-2.1
COc1ccc(/C(N)=N/OC(=O)Cc2ccc(OC)c(OC)c2)cc1	0.22	0.03
O=C(Cn1cnc2ccccc21)N/N=C/c1ccco1	1.9	1.1
O=C1CCCN1CCCNS(=O)(=O)c1ccccc1	2	1.2
CC(C)(C)NC(=O)NC12CC3CC(CC(C3)C1)C2	0.52	-0.73
CC1(C)Cc2c(sc3ncn4nc(-c5ccco5)nc4c23)CO1	0.03	-0.89
Cc1csc2c(=O)n(CCO)c(=O)[nH]c12	1.3	-1.2
Cc1nn(-c2ccccc2)c(C)c1NC(=O)COC(=O)c1cc(Cl)ccc1O	0.26	3.4
O=C(c1cccc(N2CCCC2=O)c1)N1CCN(c2cccc(Cl)c2)CC1	0.06	-1.7
CC(=O)c1cc(F)c(N2CCN(CCC#N)CC2)cc1C	0.7	-2.5
O=C(COC(=O)CCCOc1ccc(Cl)cc1Cl)NCc1ccccc1	0.46	-1.8
COc1ccc(CN2CC(C(=O)NCCc3ccc(Cl)cc3)CC2=O)cc1 (stereo not given)	0.03	-1.8
CC(NC(=O)/C(=C\c1ccco1)NC(=O)c1ccco1)C(=O)O (stereo not given)	0.39	-0.22
COc1cc(CNCCN2CCOCC2)ccc1OCc1ccccc1Cl	0.28	-0.29
CCOc1ccc(N2CC(C(=O)NCCN3C(=O)S/C(=C\c4ccc(OC)c(OC)c4)C3=O)CC2=O)cc1 (stereo not given)	1.8	-0.98
O=C(/C=C/c1ccc2c(c1)OCO2)NCC1CCCO1 (stereo not given)	0.35	3.1
Nc1c(Cl)nc(-c2ccccc2)nc1Cl	0.19	1.7
CC(C)c1nnc(NC(=O)c2ccc(S(=O)(=O)N3CCOCC3)cc2)s1	2.6	-1.1
CC(=O)CSc1ncnc2sc3c(c12)CCC(C)C3 (stereo not given)	15*	-0.11*
CC1Nc2ccccc2C(=O)N1NC(=O)c1ccc(Br)cc1 (stereo not given)	0.16	-0.11

Nothing new here: entries from further up.
SMILES	KCNQ2 pot	KCNQ2 pot baseline
O=C(COC(=O)CCCOc1ccc(Cl)cc1Cl)NCc1ccccc1	0.46	-1.8
COc1ccc(CN2CC(C(=O)NCCc3ccc(Cl)cc3)CC2=O)cc1 (stereo not given)	0.03	-1.8
CC(NC(=O)/C(=C\c1ccco1)NC(=O)c1ccco1)C(=O)O (stereo not given)	0.39	-0.22

The list continues:
SMILES	KCNQ2 pot	KCNQ2 pot baseline
CCc1cc(=O)n2[nH]c(C)c(-c3ccccc3OC)c2n1	0.63	0.21
CC1(C)CC(=O)C(C=Nc2cccnc2)=C(O)C1	0.11	-0.21
Cc1cc2oc(C(=O)Nc3ccc(S(=O)(=O)Nc4ncccn4)cc3)cc(=O)c2cc1Cl	0.7	0.25
Cc1ccc(CNC(=O)C(=O)NCC2OCCN2C(=O)c2ccc(Cl)cc2)cc1 (stereo not given)	2.4	-0.1
CC(NC(=O)NNC(=O)c1ccncc1)(C(F)(F)F)C(F)(F)F	1.6	-0.87
O=C(CC(=O)N/N=C\c1c(Cl)cccc1Cl)NCc1ccccc1	0.07	0.53
Cc1ccc(/C=N/NC(=O)CN2CCN(Cc3ccccc3)CC2)s1	0.59	-1.2
N#C/C(=N\Nc1ccc(Cl)cc1)C(N)=S	1.4	-1.1
Cc1ccccc1NC(=O)CN1C(=O)c2ccccc2C1=O	1.3	-1.8
COc1cccc2cc(-c3cc(=O)oc4cc(C)c(OCC(C)=O)cc34)oc12	0.38	1.1
Cc1nnc(C)n1/N=C/c1ccccc1	0.4	0.89
O=c1[nH][nH]c(-c2ccccc2O)c1C(C[N+](=O)[O-])c1ccc(Cl)cc1Cl (stereo not given)	1.1	-0.11
CN(NC(=O)Nc1ccc(Cl)cc1)c1ncc(C(F)(F)F)cc1Cl	2	-0.21
CC1Cc2ccccc2N1C(=O)CN1CCC(C(N)=O)CC1 (stereo not given)	0.94	-1.8
O=C1NN(c2ccccc2)C(=O)/C1=C\c1ccccc1	3	-0.49
O=C(Cn1c(=O)oc2ccccc21)Nc1cccc(Cl)c1	0.05	-0.13
CCSc1nnc(NC(=O)CSc2nc3c(cc2C#N)CCCC3)s1	1	1.9
COc1cccc(NC(=O)N2CCCC2C(=O)NCC(C)C)c1 (stereo not given)	0.06	-0.13
CCn1cc(/C=C(\NC(=O)c2ccc(OC)c(OC)c2)C(=O)NCCCN2CCOCC2)c2ccccc21	2.9	-0.69
CC(C)[C@H](NC(=O)c1nn(Cc2ccccc2)c(=O)c2ccccc12)C(=O)O	0.13	-0.62

Profiles as entered above:
Results for CN(NC(=O)Nc1ccc(Cl)cc1)c1ncc(C(F)(F)F)cc1Cl → KCNQ2 pot: 2; KCNQ2 pot baseline: -0.21
Results for CC1(C)CC(=O)C(C=Nc2cccnc2)=C(O)C1 → KCNQ2 pot: 0.11; KCNQ2 pot baseline: -0.21
Results for CC(NC(=O)/C(=C\c1ccco1)NC(=O)c1ccco1)C(=O)O (stereo not given) → KCNQ2 pot: 0.39; KCNQ2 pot baseline: -0.22

The list continues:
SMILES	KCNQ2 pot	KCNQ2 pot baseline
Cn1c(=O)c2c(nc(CN3CCC(C(N)=O)CC3)n2CCCc2ccccc2)n(C)c1=O	1.1	-0.14
C/C(=N\NC(=O)c1c(C)nc2ccccn12)c1ccco1	0.22	1.7
Cc1nc(NC(=O)/C=C/c2ccccc2)sc1C(=O)N(C)C	0.4	-0.83
COc1ccc(N2CCN(C(=O)CCCn3c(=O)c4cccn4c4cccnc43)CC2)cc1	0.21	0
CC(C)CC(CC(C)C)=NNC(=O)c1ccc(CSc2nncn2C)cc1	1.1	0.49
NC(=O)c1csc(-c2ccncc2)n1	0.51	-0.67
COCCn1c(SCC(=O)Nc2ccc(S(=O)(=O)N(C)C)cc2)nc2ccccc21	1.2	-0.38
CC(=O)COc1cc2c(-c3cc4ccccc4o3)cc(=O)oc2cc1C	0.82	-2.9
O=C(O)C(C(O)c1ccc([N+](=O)[O-])cc1)[n+]1ccccc1 (stereo not given)	0.25	-2
CCC(c1nnnn1Cc1ccccc1)N1CCN(c2ccccc2)CC1 (stereo not given)	2.1	0.37
CC1CCCCN1C(=O)c1cnn2c(C(F)(F)F)cc(-c3ccco3)nc12 (stereo not given)	0.62	0.29
O=C(CCN1C(=O)c2ccccc2S1(=O)=O)Nc1cccc2ccccc12	0.72	-0.39
COc1ccc(CNC(=O)c2cc(=O)c3ccccc3o2)cc1	0.8	2
COc1ccc(N(C(=O)c2cccc(OC)c2OC)C2C=CS(=O)(=O)C2)c(OC)c1 (stereo not given)	1.2	0.71
O=C(Cc1ccccc1)N1N=C(c2ccncc2)CC1(O)C(F)(F)F (stereo not given)	0.41	-0.4
O=C(Cc1ccc(S(=O)(=O)N2CCOCC2)s1)Nc1nc2c(s1)CCCC2	0.36	0
CCOc1ccc(OCCn2c(=S)[nH]c3c(N)ncnc32)cc1	0.4	0.8
COc1ccc(NC(=O)CC2C(=O)N(c3ccc(Cl)cc3)C(=S)N2NC(=O)c2cccc(F)c2)cc1 (stereo not given)	0.29	0.11
FC(F)(F)c1ccc(NC(=S)NC2CCCCC2)cc1	0.01	-0.03
Cc1cc(C)n(CC(=O)O)c(=O)c1[N+](=O)[O-]	0.51	-0.6
COc1ccc(-c2c(C)[nH]n3c(=O)c(Cc4ccccc4)c(C)nc23)cc1OC	1.8	0.17
Cc1[nH]c2ccccc2c1C(=O)CN1CCN(c2ccc(Cl)cc2)CC1	1.6	-0.02
CC1(C)Cc2c(C#N)c(SCC(=O)c3ccccc3)nc(N3CCOCC3)c2CS1	0.51	-2.4
Cc1ccc(NC(=O)Cn2c(=O)n(Cc3ccco3)c(=O)c3ccccc32)c(C)c1	1.8	0.22
OCC1(CCCc2ccccc2)CCN(Cc2cnc(N3CCOCC3)s2)CC1	0.75	3.5
COc1ccc(F)cc1S(=O)(=O)n1cnc2ccccc21	0.33	-0.64
CC(=O)C1=C(O)C(=O)N(CCC(=O)O)C1c1ccccc1Cl (stereo not given)	0.06	-0.55
Cn1c(N2CCCC2)nc2c1c(=O)[nH]c(=O)n2C	0.12	-1.3
c1ccc(Oc2c3ccccc3nc3ccccc23)cc1	0.08	-1.3

Screens from PubChem.
